Assay outcomes (PubChem BioAssay)
AID504770: growth inhibition of E. coli YBA685, primary screen, V. cholerae RctB inhibitors. z-score (test concentration not listed). hit rate 0.27% among 130,000. E. coli YBA685 rctB-dependent plasmid, OD600 growth, 3 h; stronger effect = lower value;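 active means z-score under -2 on both plates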;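 further: wells of about 30 µL received 100 nL stock; score is relative to mean and SD of the test wells; the first replicate is given; strong numbers were not always called active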
CapD inh: Bacillus anthracis CapD inhibitors, primary screen, biochemical, fluorescence intensity; CapD gamma-glutamyltranspeptidase (Bacillus anthracis Ames Ancestor); purified CapD enzyme, fluorescence intensity read-out; stronger effect = lower value; some hits fall short of the stated cut; z-score (test concentration not listed); hit rate 0.23% among 140,000; AID 492967, 2010;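 active means z-score under -4 in either of two replicates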;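 further: stock transfer was 100 nL into about 40 µL; score is relative to mean and spread of the plate; one replicate is shown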
* marks the source's active call; other numbers are inactive results; i = inactive; nt = no result given.

Sequence of screens – AID504770 | CapD inh
1) O=C(CSc1nc2ccc(NC(=O)c3ccccc3C(=O)N3CCCC3)cc2s1)NC1CCCCC1
  nt | 0.24
2) Cc1ccc(C)c(Cn2c3ccccc3c3cnn(CC(=O)NCCN4CCN(C)CC4)c(=O)c32)c1
  -0.15 | 21.3
3) O=C(C1CCCN(S(=O)(=O)c2ccc3nc(-c4ccccc4)[nH]c3c2)C1)N1CCOCC1 (stereo not drawn)
  1.8 | -1.41
4) Cc1cc2c(cc1C)CSC(C)(c1ccc([N+](=O)[O-])cc1)SC2
  nt | 0.095
5) NCC1OC(OC2C(N)CC(N)C(OC3OC(CO)C(O)C(N)C3O)C2O)C(N)C(O)C1O (stereo not drawn)
  nt | 0.305
6) COc1ccccc1/C=C(\C(=O)NCc1ccc(C)cc1)c1ccccc1
  nt | 0.25
7) COc1ccccc1CC(=O)Nc1c[nH]c(=O)[nH]c1=O
  0.2 | nt
8) N#Cc1c(N)nc2c3c1NC(O)(c1ccccc1)C(C#N)C3c1cc(Cl)ccc1O2 (stereo not drawn)
  0.2 | 1.64
9) CCCCN(CC)S(=O)(=O)c1ccc(C(=O)Nc2nnc(COC)o2)cc1
  0.45 | nt
10) O=S(=O)(Cc1ccccc1)CC(O)(c1ccc(F)cc1)c1ccc(F)cc1
  nt | -0.145
11) Cc1nonc1-c1cn2cc(Br)cc(Br)c2n1
  -0.25 | -0.79
12) CCCOc1ccc(C2C(C(=O)OC)=CN(Cc3ccc(OC)cc3)C=C2C(=O)OC)cc1OC
  nt | 58.4
13) COc1ccc(-c2nc(NCc3ccc(F)cc3)c3ccccc3n2)cc1OC
  nt | 31.6
14) CCCn1nc(C(=O)Nc2nnc(C3CC3)s2)c2ccccc2c1=O
  -0.25 | nt
15) Cc1ccc(C)n1-c1nn(S(C)(=O)=O)c2cccc(F)c12
  -0.3 | -1.29
16) O=C1CS/C(=C/C(=O)c2ccc(Cl)cc2)N1
  -2.25 | -0.44
17) CN1CCN(C2CC(=O)N(C3CCCCC3)C2=O)CC1 (stereo not drawn)
  1.45 | 0.39
18) CC1=C(/C=C/C(C)=C/C=C/C(C)=C\C(=O)O)C(C)(C)CCC1
  -0.05 | -0.145
19) CCCN1C(=O)/C(=N\OCC(=O)Nc2ccc(S(=O)(=O)N3CCOCC3)cc2)c2ccccc21
  -0.55 | nt
20) O=C1CS(=O)(=O)C(c2ccccc2[N+](=O)[O-])N1c1ccc(Cl)c(Cl)c1 (stereo not drawn)
  nt | -0.02

New compounds follow:
Sequence of screens – AID504770 | CapD inh
21) O=C(Nc1nccs1)C(Cc1ccccc1)n1cccc1 (stereo not drawn)
  -0.7 | -0.905
22) CCOC(=O)c1csc(-c2ccccc2F)n1
  -0.45 | 0.305
23) O=C(c1cccc(Cl)c1)N(Cc1cc2ccccc2[nH]c1=O)c1ccccc1
  1 | 0.09
24) COCCNCc1cc(C)ccc1OC
  1.3 | nt
25) N#Cc1nc(-c2ccccc2)oc1NCC1CCCO1 (stereo not drawn)
  -0.45 | nt
26) CC(=O)OC[C@@H](OC(C)=O)C(O[C@@H]1O[C@H](COC(C)=O)[C@H](OC(C)=O)[C@H](OC(C)=O)[C@H]1OC(C)=O)[C@H](OC(C)=O)[C@@H](OC(C)=O)C(N)=O (stereo partly drawn)
  nt | 0.345
27) O=C(NCC(=O)N1CCN(C(=O)c2ccccc2)CC1)c1ccccc1
  1.45 | nt
28) O=C1CC(c2ccccc2)Cc2nc(NC3CC3)ncc21 (stereo not drawn)
  2.3 | nt
29) N#C/C(=C/c1ccc(Br)o1)c1ccc(C(=O)O)cc1
  -0.75 | -2.79
30) CCN(CC(=O)NCc1cccs1)C(=O)Cc1csc(-c2ccccc2)n1
  0.05 | nt
31) O=C1/C(=C/c2ccc(-c3ccc([N+](=O)[O-])cc3)o2)C=C(c2ccccc2)N1Cc1ccccc1
  nt | -0.755
32) CC1CCN(C(=O)Cn2cc(C#N)c3ccccc32)CC1
  0 | 6.53
33) N#Cc1ccc(C(=O)OCC(=O)NC2CC2)cc1
  -0.8 | nt
34) Cc1nc(SC2CC(=O)N(c3ccc(Br)cc3)C2=O)c(C#N)c(C)c1C (stereo not drawn)
  nt | -0.155
35) Fc1ccc(N2CCN(c3ncnc4c3cnn4-c3ccc(Cl)cc3)CC2)cc1
  nt | -0.325
36) CCN(CC)CC(=O)c1sc2ccc(Cl)cc2c1C
  -0.75 | -0.245
37) CCN(CC)C(=O)c1sc2nc(C)cc(C)c2c1N
  0.35 | 6.16
38) CCC12CC3CC(CC(N)(C3)C1)C2
  -0.15 | i
39) CCCCn1c(SCC(=O)NCC)nc2cc(S(=O)(=O)N3CCCCC3)ccc21
  -0.65 | nt
40) Cc1ccc2[nH]c3c(cc(Nc4ccccc4)c4c(=O)c5ccccc5c(=O)c43)oc2c1
  nt | 0.185

Additional records:
Sequence of screens – AID504770 | CapD inh
41) CCNc1nc(NCC)n2c(SCC(=O)NCC3CCCCC3)nnc2n1
  -0.75 | nt
42) COc1ccc(-c2nc(SC)n(C(=O)c3ccccc3OC)n2)cc1
  1.65 | 0.125
43) CCOc1nsnc1N1CCOCC1
  1.6 | -0.145
44) CCc1cccc2c(CC(=O)O)c(C)[nH]c12
  -0.1 | nt
45) COc1ccccc1S(=O)(=O)Cc1ccc(C(=O)NC(C)c2ccc3c(c2)OCCO3)o1 (stereo not drawn)
  -0.6 | 8.66
46) Cc1ccc(-c2nnc(SCc3c(C)cc(C)cc3C)o2)cc1
  1.4 | 0.34
47) CS(=O)(=O)Nc1ccccc1C(=O)N1CCC(c2c[nH]c3ccccc23)CC1
  nt | -0.395
48) Cc1ccc2[nH]c(CCN(C)C)c(CC#N)c2c1
  -0.25 | 0.765
49) COc1ccc2c(c1)CCc1c(C(=O)Nc3cccnc3)noc1-2
  -0.1 | -1.23
50) O=C1C(CN2CCCCC2)CCCC1CN1CCCCC1 (stereo not drawn)
  -0.15 | -0.11
51) Cc1ccc2c(CSc3nc(N)cc(N)n3)cc(=O)oc2c1C
  0.2 | nt
52) CC(C)c1ccc(NCC(O)CSc2ccccc2)cc1 (stereo not drawn)
  -0.8 | -0.445
53) CC(C)CNC(=O)c1cccc(Cl)c1
  -0.4 | nt
54) CC1(C)CC(NC(=O)CNc2ccccc2)CC(C)(C)N1
  1.1 | i
55) COC(=O)C1=C(C)NC(SCC(=O)NC2CCCCC2)=C(C#N)C1c1ccccc1F (stereo not drawn)
  -0.2 | 3.56
56) COC(=O)c1ccc(-n2c(C)cc(/C=C3/C(=O)NC(=O)N(c4ccc5c(c4)OCO5)C3=O)c2C)cc1
  nt | 0.37
57) COc1cccc(NCc2nnc(SCC(=O)NC3CCS(=O)(=O)C3)n2C2CCCCC2)c1 (stereo not drawn)
  0.9 | nt
58) COc1ccc([N+](=O)[O-])cc1-c1[nH]c(-c2cc(OC)c(OC)c(OC)c2)nc1-c1ccccc1
  nt | -1.34
59) O=C(CSc1nccc(-c2cccs2)n1)Nc1cccc(C(F)(F)F)c1
  0.4 | 3.06
60) Cc1cc(-c2ccccc2)nc2cc(C(=O)N(C)C3CCCCC3)nn12
  -0.3 | 3.31

Seven of the compounds above, with one line to a screen:
53: CC(C)CNC(=O)c1cccc(Cl)c1
54: CC1(C)CC(NC(=O)CNc2ccccc2)CC(C)(C)N1
55: COC(=O)C1=C(C)NC(SCC(=O)NC2CCCCC2)=C(C#N)C1c1ccccc1F (stereo not drawn)
56: COC(=O)c1ccc(-n2c(C)cc(/C=C3/C(=O)NC(=O)N(c4ccc5c(c4)OCO5)C3=O)c2C)cc1
57: COc1cccc(NCc2nnc(SCC(=O)NC3CCS(=O)(=O)C3)n2C2CCCCC2)c1 (stereo not drawn)
58: COc1ccc([N+](=O)[O-])cc1-c1[nH]c(-c2cc(OC)c(OC)c(OC)c2)nc1-c1ccccc1
59: O=C(CSc1nccc(-c2cccs2)n1)Nc1cccc(C(F)(F)F)c1
assay / entry	53	54	55	56	57	58	59
AID504770	-0.4	1.1	-0.2	nt	0.9	nt	0.4
CapD inh	nt	i	3.56	0.37	nt	-1.34	3.06

(more compounds)
Sequence of screens – AID504770 | CapD inh
61) C1=C(N2CCC(Cc3ccccc3)CC2)CCc2ccccc21
  0.1 | 2.73
62) c1ccc(C2C3=C(CCCC3)Nc3nc4ccccc4n32)cc1 (stereo not drawn)
  nt | -0.535
63) N#Cc1c2ccccc2c(C#N)c2ccccc12
  -1.05 | 0.04
64) Cc1ccc(C2=N/C(=C\c3cccs3)C(=O)O2)cc1[N+](=O)[O-]
  nt | 0.415
65) Cc1cc(NC(=O)Cn2c(=O)/c(=C\c3cccs3)s/c2=C\C(=O)C(C)(C)C)no1
  -0.45 | nt
66) Clc1ccc(-c2cc(C3CCNCC3)[nH]n2)c(Cl)c1
  -1.65 | 0.3
67) Cc1oc2c(c1C(=O)NCCO)CCCC2
  0.4 | nt
68) CCCc1nnc2n1N=C(c1ccc(OC)cc1)CS2
  nt | -0.51
69) Cc1cc(C)c(C(=O)O)c(Cl)n1
  1.55 | nt
70) CCOC(=O)CSc1nc2c(sc3ccccc32)c(=O)n1Cc1ccccc1
  1.6 | 0.44
71) CC(C)N(CCC#N)C(=O)Nc1ccccc1Cl
  -1.3 | -1.26
72) CS(=O)(=O)N1CCC(C(=O)Nc2ccccc2)CC1
  0.85 | nt
73) Cc1cc(Cl)cc2sc(NC(=O)C3CC3)nc12
  -0.05 | nt
74) O=C1OCCN1S(=O)(=O)c1ccc(Cl)cc1
  0 | 0.45
75) O=C(c1cc2ccccc2cc1O)N1CCOCC1
  1 | nt
76) N#Cc1cc(Oc2cccnc2)c(Oc2cccnc2)cc1C#N
  2 | -0.42
77) Cc1cc(C)n(-c2nc(-c3ccccc3)cs2)n1
  -0.35 | -0.25
78) Cc1ccc(C)c(OCC(=O)N/N=C\c2cccn2C)c1
  0.45 | 0.02
79) CN(C)/C=C(\C#N)S(=O)(=O)c1ccc(Cl)cc1
  nt | 0.755
80) CC(C)S(=O)(=O)c1cnc(-c2ccccn2)nc1N
  nt | 0.18

(next part)
Sequence of screens – AID504770 | CapD inh
81) CNc1[nH]cnc(=S)c1N
  -1.3 | -0.18
82) CCN=C1S/C(=C\c2cn(C(=O)CC)nc2-c2ccc(F)cc2)C(=O)N1CC
  nt | -0.5
83) Cc1ccc(-n2nnnc2SCc2nc3sc4c(c3c(=O)[nH]2)CCCC4)c(C)c1
  0 | nt
84) COc1cc2c(cc1OC)C(C)NCC2 (stereo not drawn)
  nt | 0.085
85) Cc1csc(NC(=O)C2CCC(CNS(=O)(=O)c3cccc4nsnc34)CC2)n1 (stereo not drawn)
  0.35 | -0.275
86) Cc1ccc(NC(=S)N(CCCN2CCOCC2)C(C)c2cc3ccccc3o2)cc1C (stereo not drawn)
  -1.35 | 0.31
87) O=c1c2ccccc2c(-c2nnc(SCC3CCCCO3)o2)nn1Cc1ccccc1 (stereo not drawn)
  -0.15 | nt
88) COc1ccc2nc(C)cc(-n3nc(C)cc3C)c2c1
  1.8 | nt
89) COc1ccc(/C=C2\SC(=S)N(CCC(=O)N(C)C3CCS(=O)(=O)C3)C2=O)cc1 (stereo not drawn)
  -0.55 | nt
90) COC(=O)C(NC(=O)c1ccc(Cl)cc1)(Nc1sc2c(c1C#N)CCC(C)C2)C(F)(F)F (stereo not drawn)
  nt | 0.05
91) c1ccc2c(c1)OCC(CSc1nc3ccccc3s1)O2 (stereo not drawn)
  1.55 | nt
92) COC(=O)CCCC[C@H]1SC[C@@H](NC(=O)c2ccccc2)[C@H]1NC(=O)c1ccccc1
  nt | -0.05
93) Nc1ccc(Oc2ccc(F)cc2)nc1
  nt | 13.7
94) CCOc1ccc(-n2c(/C=C/c3ccccc3OC)nc3cc(OC)c(OC)cc3c2=O)cc1
  nt | -0.245
95) COc1ccccc1C1CCN(S(=O)(=O)c2ccc(C)cc2)CC1
  nt | 0.175
96) O=C(Oc1ccc(Oc2ccccc2)cc1)c1cccs1
  -0.4 | -0.845
97) Cc1cc2nc(CSc3ccccc3NC(=O)CC(C)C)cc(=O)n2o1
  0.85 | 0.555
98) CCc1noc(C)c1C(=O)NCCN(C)C
  0.15 | 0.045
99) C=CCSc1nc(-c2cccs2)cc(-c2ccccc2)c1C#N
  nt | 53.1
100) COc1cc(C2Nc3ccc4ccccc4c3C3=C2C(=O)CC(C)(C)C3)ccc1OC(C)=O (stereo not drawn)
  nt | 7.76

(listing goes on)
Sequence of screens – AID504770 | CapD inh
101) Cc1nnc(NC(=O)CSc2nnc(CNC(=O)COc3ccccc3)n2-c2ccc(Br)cc2)s1
  nt | -1.27
102) Cc1cccc2c1-c1sc(C(=O)Nc3ccc(S(N)(=O)=O)cc3)cc1CO2
  0.05 | -1.87
103) CCCC/C(C)=N/N1C(C)CCCC1C (stereo not drawn)
  -0.4 | nt
104) O=C1NC(=O)C(C(CC(=O)c2ccccc2)c2ccccc2)C(=O)N1 (stereo not drawn)
  -0.9 | nt
105) Cc1nc(-c2cccc(NC(=O)/C=C\C(=O)O)c2)cs1
  1.1 | 0.665
106) COc1ccc(C2=NN3C(C2)c2cccc(OC)c2OC3c2cccc(Cl)c2)cc1 (stereo not drawn)
  nt | -0.46
107) CC(=O)Oc1ccc(C(=O)c2ccccc2)c(OC(C)=O)c1
  -0.15 | 0.035
108) O=C(Nc1ccccc1)c1ccc2c(c1)C(=O)N(CC1CCCO1)C2=O (stereo not drawn)
  -0.5 | -0.055
109) CC(C)(C)c1ccc(Oc2ccc(NC(=O)CCCC(=O)O)cn2)cc1
  -0.65 | -1.14
110) CC(C)(C)c1cc2cc(NS(=O)(=O)c3cccc(C(F)(F)F)c3)ccc2[nH]1
  nt | -0.78
111) CCOC(=O)c1cc(C)[nH]n1
  -0.85 | 1.04
112) O=S(=O)(NC1=NCC2CCCC2N1)c1ccccc1 (stereo not drawn)
  0.05 | 0.6
113) CSCC(O)Cn1ncc2ccccc2c1=O (stereo not drawn)
  nt | -0.065
114) Cc1nc2cc(S(=O)(=O)N3CCC(C(=O)O)CC3)ccc2n1C1CCCC1
  1.95 | -0.16
115) Cc1ccc(NC(=O)CN(C)Cc2nnc(-c3cc4c(s3)CCCC4)o2)cc1
  0.35 | nt
